Platelet DG rel: platelet dense granule release activity; human platelet-rich plasma, SFLLRN dense granule ATP release, luminescence; inhibition, %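 (compounds screened at 7.5 µM in platelet-rich plasma)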; 0.22% of 300,000 active; AID 1663;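 active = mean replicate score, as percent of positive control, at or above 50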
HSP90 refold inh: HSP90 refolding inhibition in rabbit reticulocyte lysate | 0.91% of 290,000 active | inhibition, % at 5.6 µM | luciferase refolding luminescence, 3 h;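 active = inhibition above the screen-wide mean plus 3 SD, computed separately per campaign, cut at about 16% in these data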;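 note: 0% = DMSO wells and 100% = 60 µM geldanamycin wells; inhibitors lower the luminescence because luciferase stays unfolded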
PolyA inh: blocks polyadenylation in yeast reporter cells. S. cerevisiae SKY197-pL101 polyadenylation reporter, beta-gal luminescence; efflux-impaired pdr1/pdr3 knockout yeast; score 100 = 6 SD above DMSO. calls only at 12 µM. 0.02% of 300,000 active. AID 1875;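 active = lowest replicate activity score at least 50, where 100 means six control SD above control mean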;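 note: yeast exposed to compound for 9 h at 30 °C; higher score means more reporter readthrough which indicates perturbed polyadenylation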
GSK3beta inhib: blocks human GSK3beta kinase activity; P49841; 0.038% of 300,000 active; GST-GSK3beta kinase, ADP-Glo luminescence, 60 min; hits give low values; activity score (negative = inhibition), % at 10 µM;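 active = more than half of replicate wells score below -50%, meaning over 50% inhibition versus plate controls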;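 note: 0% = median DMSO wells and -100% = median GW8510 positive control wells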
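Test system: GST-fused GSK3beta enzyme, cell-free | Quantity: 1.6 ng GST-GSK3beta enzyme per well | Reagent: 25 µM ATP with peptide substrate | Schedule: 60 min enzyme reaction, room temperature | Signal: Luminescent ADP-Glo measurement of ADP formed | Read-out basis: Score relative to plate controls | Control set: DMSO and 20 µM GW8510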
GSK3 alpha inh: inhibitors of human GSK-3 alpha kinase; 0.1% of 320,000 active; AID 2650; ADP-Glo luminescence, 60 min; P49840; inhibition, % at 10 µM;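 in the data active = inhibition above about 50%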;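 note: GST-tagged GSK-3 alpha with peptide substrate and 25 µM ATP; 0% = DMSO neutral wells and 100% = GW8510 positive control wells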
Target sequence (P49840 whole entry, looked up): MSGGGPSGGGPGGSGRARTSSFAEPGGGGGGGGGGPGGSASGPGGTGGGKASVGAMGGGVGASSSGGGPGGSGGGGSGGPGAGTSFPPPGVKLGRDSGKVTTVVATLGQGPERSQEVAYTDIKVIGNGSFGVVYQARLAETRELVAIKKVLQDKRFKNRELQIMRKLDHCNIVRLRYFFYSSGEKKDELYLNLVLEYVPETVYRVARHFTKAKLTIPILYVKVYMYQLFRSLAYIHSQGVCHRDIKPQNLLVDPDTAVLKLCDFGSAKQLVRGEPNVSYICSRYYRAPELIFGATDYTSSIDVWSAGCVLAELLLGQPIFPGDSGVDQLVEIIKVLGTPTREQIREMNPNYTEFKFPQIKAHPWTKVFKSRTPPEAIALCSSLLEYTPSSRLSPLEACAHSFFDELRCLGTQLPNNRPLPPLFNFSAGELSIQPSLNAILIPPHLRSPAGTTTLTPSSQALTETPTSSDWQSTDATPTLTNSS
HSF1 inhib: HSF1 inhibition. NIH3T3-HGL HSE-luciferase, MG132-induced, luminescence 8 h; hits give low values. activity change, negative = inhibition, % at 7.5 µM (by protocol). 0.77% of 300,000 active;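 active = more than half of replicate wells show activity change below -50%, luminescence cut by over half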;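 note: luciferase reports HSF-1 transcriptional activity via heat shock element; 0% = median of DMSO wells and -100% = zero luminescence signal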
AI-2 QS modul: modulates the Vibrio harveyi AI-2 quorum sensing system; Vibrio harveyi JMH597 AI-2 luminescence/OD600 ratio, 9 h; hits give low values; strain lacks LuxN and CqsS sensors; 0 = neutral-control median; activity change, % at 7.5 µM; 0.4% of 300,000 active; AID 2094; in the data active = activity change below about -75%, passing the limit was not always enough;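 note: luminescence divided by OD600 gain over 9 h not by final OD600 alone; inactives centre near 13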
HDAC3 inhib: human HDAC3 inhibition. recombinant HDAC3, fluorogenic peptide/trypsin coupled, fluorescence. inhibition, % at 8.3 µM. 0.15% of 320,000 active. AID 2718; in the data active = inhibition above about 26%, passing the limit was not always enough
HSF1 activator: increases HSF-1 driven luciferase reporter signal. NIH3T3-HGL HSF-1 luciferase reporter, MG132, 8 h; 100% = twice DMSO control signal. activation, % at 9 µM. 1.7% of 300,000 active;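 active = mean replicate activation of at least 50% with a set share of replicates each reaching 50%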;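 note: 0% = median of the neutral control wells and 100% = twice that signal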
An asterisk follows results filed as active. This is a subset (hit frequency here may not be typical).

How did NC(=O)C1(N2CCCCC2)CCN(c2ccc3nnc(-c4ccccc4)n3n2)CC1 do in these assays?
Platelet DG rel: -32; HSP90 refold inh: -1; PolyA inh: inactive; GSK3beta inhib: 0; GSK3 alpha inh: 3; HSF1 inhib: 1; AI-2 QS modul: 10; HDAC3 inhib: -9; HSF1 activator: -5

Results for COc1cc([N+](=O)[O-])c(OC)cc1SCc1n[nH]c(=S)n1-c1ccc(C)cc1 ?
Platelet DG rel: -2; HSP90 refold inh: -8; PolyA inh: inactive; GSK3beta inhib: -1; GSK3 alpha inh: -5; HSF1 inhib: 0; AI-2 QS modul: 9; HDAC3 inhib: 5; HSF1 activator: 2

What do the screens show for `CCCCn1c(=O)c2ccccc2n2c(=S)[nH]nc12`?
Platelet DG rel: -2; HSP90 refold inh: -3; PolyA inh: inactive; GSK3beta inhib: -5; GSK3 alpha inh: 13; HSF1 inhib: -6; AI-2 QS modul: 14; HDAC3 inhib: 7; HSF1 activator: -2

Results for COc1ccc(Nc2ncnc3ccc(Br)cc23)cc1OC ?
Platelet DG rel: -1; HSP90 refold inh: 0; PolyA inh: inactive; GSK3beta inhib: -1; GSK3 alpha inh: 4; HSF1 inhib: -28; AI-2 QS modul: 2; HDAC3 inhib: 0; HSF1 activator: -33

Results for CCc1ccc(CSc2nccn2-c2ccccc2)cc1 ?
Platelet DG rel: -19; HSP90 refold inh: 5; PolyA inh: inactive; GSK3beta inhib: 2; GSK3 alpha inh: -6; HSF1 inhib: 2; AI-2 QS modul: 21; HDAC3 inhib: 9; HSF1 activator: 7

How did CCOc1cc(O)c(-c2[nH]ncc2-c2nc(C)cs2)cc1CC do in these assays?
Platelet DG rel: 0; HSP90 refold inh: -3; PolyA inh: inactive; GSK3beta inhib: -3; GSK3 alpha inh: 3; HSF1 inhib: -6; AI-2 QS modul: -6; HSF1 activator: 9

What do the screens show for `O=c1c(Cl)c(NS(=O)(=O)c2ccccc2)cnn1-c1ccccc1`?
Platelet DG rel: -1; HSP90 refold inh: 2; PolyA inh: inactive; GSK3beta inhib: 1; GSK3 alpha inh: -6; HSF1 inhib: 1; AI-2 QS modul: 3; HDAC3 inhib: 6; HSF1 activator: 3

Arranged by length of the SMILES (low to high): part of the list above.
Results for CCc1ccc(CSc2nccn2-c2ccccc2)cc1 ?
Platelet DG rel: -19; HSP90 refold inh: 5; PolyA inh: inactive; GSK3beta inhib: 2; GSK3 alpha inh: -6; HSF1 inhib: 2; AI-2 QS modul: 21; HDAC3 inhib: 9; HSF1 activator: 7

What do the screens show for `O=c1c(Cl)c(NS(=O)(=O)c2ccccc2)cnn1-c1ccccc1`?
Platelet DG rel: -1; HSP90 refold inh: 2; PolyA inh: inactive; GSK3beta inhib: 1; GSK3 alpha inh: -6; HSF1 inhib: 1; AI-2 QS modul: 3; HDAC3 inhib: 6; HSF1 activator: 3

How did NC(=O)C1(N2CCCCC2)CCN(c2ccc3nnc(-c4ccccc4)n3n2)CC1 do in these assays?
Platelet DG rel: -32; HSP90 refold inh: -1; PolyA inh: inactive; GSK3beta inhib: 0; GSK3 alpha inh: 3; HSF1 inhib: 1; AI-2 QS modul: 10; HDAC3 inhib: -9; HSF1 activator: -5

Results for COc1cc([N+](=O)[O-])c(OC)cc1SCc1n[nH]c(=S)n1-c1ccc(C)cc1 ?
Platelet DG rel: -2; HSP90 refold inh: -8; PolyA inh: inactive; GSK3beta inhib: -1; GSK3 alpha inh: -5; HSF1 inhib: 0; AI-2 QS modul: 9; HDAC3 inhib: 5; HSF1 activator: 2

Screening results (PubChem BioAssay)
